# SARS PLpro yeast = inhibitors of SARS-CoV papain-like protease in yeast; S. cerevisiae expressing SARS-CoV PLpro, growth rescue; control for the full effect not named in the record; Potency, µM (top dose mostly 32.9 µM), without a hit: top-dose activity, positive = growth rescue; 0.19% of 330,000 active; AID 485353; also: 0% is about no effect; nearly all actives have a fitted effect of over 55% in size; growth read by luminescence after 48 h
# Marburg entry inh = Marburg virus entry inhibition; Marburg virus pseudotyped entry inhibition, cell reporter; control for the full effect not named in the record; about a third of the inactives were read at about 46 µM; Potency, µM (top dose mostly 37.8 µM), for inactives: top-dose activity change, negative = inhibition, most hits filed as inhibitors; 1.8% of 300,000 active; active = well fitted inhibition curve with a large enough effect; inconclusive = small, poorly fitted or top-dose-only effect, or effect the other way; inactive = flat fitted curve, though single readings scatter; tested in HEK293 cells; about a fifth of its hits are not listed in these tables; also: % is scaled to controls: 0 for no effect and ±100 for the full control effect; luciferase read-out
# StopGo reporter = FMDV 2A StopGo reporter, luciferase signal | human cells with a luciferase reporter of 2A StopGo recoding; control for the full effect not named in the record | AID 1159524 | 1.2% of 410,000 active | Potency, µM (series often up to 57.9 µM), for inactives: at the top dose signal change, negative = less light; active = well fitted falling curve with a large enough effect; inconclusive = small, poorly fitted or top-dose-only effect; inactive = no such curve, though single readings can be large or run the other way; tested in HEK293T cells; also: % is scaled to controls: 0 for no effect and ±100 for the full control effect; nearly all actives have a fitted effect of over 45% in size; luciferase light after 4 h
# LASV entry inh = blocks Lassa virus binding to or entry into cells | Potency, µM (top dose mostly 37.9 µM), for the others: top-dose activity change, negative = inhibition, actives largely listed as inhibitors | 1.2% of 300,000 active | Lassa virus pseudotype entry inhibition, cell reporter; control for the full effect not named in the record; active means well fitted inhibition curve with a large enough effect; inconclusive means small, poorly fitted or top-dose-only effect, or effect the other way; inactive means flat fitted curve, though single readings scatter; tested in HEK293 cells; also: % is scaled to controls: 0 for no effect and ±100 for the full control effect; nearly all actives have a fitted effect of over 50% in size; luciferase read-out
# RE007 growth inh = less growth of the S. pombe RE007 Vpr strain. 0.21% of 360,000 active. S. pombe RE007 Vpr strain, BacTiter-Glo ATP luminescence, 24 h; control for the full effect not named in the record. Potency, µM (highest dose often 92.2 µM), for inactives: at the highest dose activity change, negative = less growth. AID 651644; active = well fitted falling curve with a large enough effect; inconclusive = small, poorly fitted or top-dose-only effect; inactive = no such curve, though single readings can be large or run the other way;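 also: % is scaled to controls: 0 for no effect and ±100 for the full control effect; nearly all actives have a fitted effect of over 50% in size; the assay follows cell death caused by Vpr and the record does not say whether a fall means rescue or toxicity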
#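 Fission yeast strain RE007, carrying one chromosomally integrated HIV-1 vpr copy, was seeded at OD 0.01 in PMG+AL medium with 23 nL pinned compound. After 24 h at 30 °C and 99% humidity, viability was read by BacTiter-Glo luminescence.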
# Cruzain noTriton = inhibitors of Trypanosoma cruzi cruzain without detergent. P25779. purified cruzain, Z-FR-AMC fluorescence, no detergent. Potency, µM, without a hit: max response, negative = inhibition, actives largely listed as inhibitors. 2.3% of 200,000 active. AID 1476; active = well fitted curve in the direction sought with a large enough effect; inconclusive = small, poorly fitted or top-dose-only effect, or another doubt; inactive = no such curve, though single readings can be large; an effect the other way counts as inactive or inconclusive;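 also: plate controls were enzyme without inhibitor for no effect and buffer without enzyme for full effect; nearly all actives have a fitted effect of over 40% in size; top concentration of the series not given in the record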
# Target sequence (P25779 123-467 limits assumed): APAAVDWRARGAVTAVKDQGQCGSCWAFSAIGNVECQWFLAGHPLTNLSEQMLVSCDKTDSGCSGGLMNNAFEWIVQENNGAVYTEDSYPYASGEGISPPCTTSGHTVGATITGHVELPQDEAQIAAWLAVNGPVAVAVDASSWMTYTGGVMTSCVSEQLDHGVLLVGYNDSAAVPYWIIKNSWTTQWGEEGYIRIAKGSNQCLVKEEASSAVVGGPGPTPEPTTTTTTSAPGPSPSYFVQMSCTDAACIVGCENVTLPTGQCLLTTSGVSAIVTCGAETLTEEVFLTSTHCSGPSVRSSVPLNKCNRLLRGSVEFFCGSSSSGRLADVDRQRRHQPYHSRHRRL
#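 Detergent-free condition (0.00005% Triton X-100) in acetate buffer pH 5.5 with DTT. 1.5 nM enzyme and compound were pre-mixed 15 min, then 2 uM Z-FR-AMC substrate added; reaction progress from fluorescence change between first and third reads (60 s).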
# NS1 inh = inhibitors of influenza NS1 protein function; S. cerevisiae slowed by influenza A NS1, growth recovery by OD600; Potency, µM (top dose mostly 46.1 µM), for inactives: at the top dose activity, positive = more growth; 0.4% of 270,000 active; AID 2326; also: actives are rising curves; nearly all actives have a fitted effect of over 50% in size
#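 Recovery from NS1-induced slow growth read by OD600 in budding yeast switched to galactose assay medium (pH 6.0, -URA) at 1:100 dilution. Compound 23 nl per well; the matching strain lacking NS1 serves as control.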
# Cruzain Triton = blocks cruzain activity in presence of Triton detergent | purified cruzain, Z-FR-AMC fluorescence, 0.01% Triton | Potency, µM, without a hit: max response, negative = inhibition, usual class: inhibitors | 0.43% of 200,000 active | P25779; active = well fitted curve in the direction sought with a large enough effect; inconclusive = small, poorly fitted or top-dose-only effect, or another doubt; inactive = no such curve, though single readings can be large; an effect the other way counts as inactive or inconclusive;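 also: plate controls were neutral wells for no effect and buffer without enzyme for full effect; nearly all actives have a fitted effect of over 40% in size; top concentration of the series not given in the record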
#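 Sodium acetate buffer (100 mM, pH 5.5) containing 5 mM DTT and 0.01% Triton X-100 hosted 1.5 nM cruzain and test compound for 15 min at room temperature. Cleavage of 2 uM Z-FR-AMC was then tracked by fluorescence.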
# Numbers without * were called inactive; u = inconclusive; x = not tested or not shown; & = joins results of further samples; [ ] = remark or other dose. Unless noted, calls follow the shape of the dose curve; as a rule, active means well fitted rising curve with a large enough effect; inconclusive means small, poorly fitted or top-dose-only effect; inactive means no such curve, though single readings can be large or run the other way. Potency is read from the fitted curve at half-maximal effect.
SMILES,SARS PLpro yeast,Marburg entry inh,StopGo reporter,LASV entry inh,RE007 growth inh,Cruzain noTriton,NS1 inh,Cruzain Triton
CC(Nc1cc(N2CCN(S(=O)(=O)N(C)C)CC2)ccc1[N+](=O)[O-])c1ccccc1 (stereo not given),-1%,u,u,1%[46.1 µM],-12%,x,-2%,x
CCOC(=O)C1(C)NC(c2ccco2)C2C(=O)N(c3ccc(C)cc3)C(=O)C21 (stereo not given),-17%,2%[46.1 µM],7%,-9%,15%,13%,7%,0.9%
CCCCC(CC)C(=O)Nc1cccc(SC)c1 (stereo not given),1%,u,-10%,25%,22%,x,1%,x
Cc1c(CNC2CCC(C)CC2)c(C(=O)O)c(C)n1Cc1ccccc1F (stereo not given),x,-3%[46.1 µM],-18%,-5%[46.1 µM],x,-1%,x,-2.0%
CCN1CCCC1CNC(=O)Cn1cc2c(n1)CCC(C)C2 (stereo not given),1%,x,-10%,x,0%,4%,-5%,0.2%
O=c1c2ccccc2cnn1Cc1nnc(-c2cccs2)o1,-9%,u,23%,13%[46.1 µM],32%,x,-14%,x
O=C(NCCSc1c[nH]c2ccccc12)c1ccco1,-5%,13%,-5%,-1%,0%,-11%,-47%,-2.2%
O=C(O)c1ccc2nc(CO)[nH]c2c1,-2%,1%,-9%,-8%,4%,-3%,0%,3.8%
CC(=O)c1cccc(NC(=O)/C(=C\c2cccnc2)NC(=O)c2ccco2)c1,-1%,4%[46.1 µM],25%,15%[46.1 µM],1%,x,x,x
O=C(c1cc2n(n1)C(C(F)(F)F)CC(c1ccco1)N2)N1CCc2ccccc2C1 (stereo not given),-14%,u,-28%,u,-1%,29%,5%[9.22 µM],-14%
N/C(=N\OC(=O)c1ccco1)c1cccc(Br)c1,-26%,-7%,44%[activator],u,-25%,-8%,-205%,-2.5%
O=C(c1ccccc1)c1ccc(Oc2ccc([N+](=O)[O-])cc2[N+](=O)[O-])cc1,x,u,u,-23%[46.1 µM],-4%,x,x,x
CC1=CC(C)(C)[N+](C)(C)c2ccc(C)cc21,0%,2%[46.1 µM],18%,7%[46.1 µM],-11%,x,1%,x
COC(=O)Cc1cc(=O)n2[nH]c(C(F)(F)F)nc2n1,2%,20%,-14%,8%,11%,-1%,-13%,-0.2%
Cc1ccc(-c2nnc(CCC(=O)NCc3csc(C)n3)o2)s1,-1%,x,9%,x,-19%,x,-1%,x
Cc1cc(Cn2nnnc2-c2ccncc2)cc(C)c1O,-1%,u,-15%,u,6%,x,3%,x
Nc1nc2ccccc2n1C(=O)c1ccc(F)cc1,-2%,u,-66%,7.1µM*,-13%,x,-1%,x
O=C(CCc1ccccc1)Nc1ccccc1,0%,u,39%[activator],u,-7%,x,1%,x
CC1(C(=O)N/N=C/c2ccc([N+](=O)[O-])o2)CC1(Br)Br (stereo not given),0%,u,-20%,13µM*,-13%,-1%,-30%,-6.4%
COCCNC(=O)C(C)Oc1ccc(Cl)cc1Cl (stereo not given),5%,-4%,-13%,1%,-6%,-14%,-3%,-1.5%
O=[N+]([O-])c1cc([N+](=O)[O-])c(Oc2cc(F)cc(F)c2F)cc1NN1CCCCC1,-1%,x,-14%,x,15%,x,-2%,x
Cc1ccc2[nH]c3c(=O)n(Cc4ccccn4)cnc3c2c1,2%,0%,-12%,-14%,-16%,-1%,10%,2.9%
Cc1ccc(NC(=O)COC(=O)CC2CCCC2)cc1F,-33%,-17%[46.1 µM],1%,-1%[46.1 µM],-12%,x,x,x
Cc1cc2ccccc2c(=O)n1CC(=O)NCC(=O)N1CCN(c2ccccc2)CC1,4%,1%,0%,0%,-9%,-1%,-5%,3.6%
Cc1ccc(C(=O)NCC(=O)OCC(=O)N2CCCc3ccccc32)cc1,13%,18%,u,0%,19%,u,-1%,-24%
CCOC(=O)C1(Cc2ccccc2C)CCCN(C(=O)c2ccc3nccnc3c2)C1 (stereo not given),7%,-12%,-18%,-20%,6%,x,-2%,x
Cc1cc(NC(=O)CCCN2C(=O)/C(=C/c3ccccc3Cl)SC2=S)no1,0%,0%,5%,-20%,-13%,x,12%,x
CCN(CC)S(=O)(=O)c1ccc(C)c(N=C=S)c1,-1%,u,-3%,u,26%,x,x,x
O=C(Nc1ccc(Oc2cccnc2)cc1)c1ccc([N+](=O)[O-])cc1,-1%,2%[46.1 µM],-5%,0%,-2%,x,x,x
COc1ccc(CNC(C)C2COc3ccccc3O2)c(OC)c1 (stereo not given),13%,11µM*,-23%,2%,-25%,-8%,-16%,7.6%
COC(=O)c1ccc(NC(=O)CN(Cc2ccccc2)S(=O)(=O)c2ccc(Cl)cc2)cc1,x,-9%[46.1 µM],u,u,x,1%,x,-6.4%
O=C(NC(=S)Nc1cccc2cc(O)ccc12)c1ccco1,3%,-6%[46.1 µM],4%,-28%[46.1 µM],-15%,x,-12%,x
COc1ccc(-c2csc(NC(=O)CSc3nc(C)cs3)n2)cc1,x,23%,5%,-16%,-7%,x,x,x
Clc1ccc(COc2ccccn2)c(Cl)c1,1%,3%&3%,-7%,-2%,7%,14%,4%,1.0%
CC(Cc1ccccc1)N(C)CC1C(=O)C2CCC1C2 (stereo not given),x,4%,-10%,12%[46.1 µM],-5%,x,x,x
Cc1cc(C)n(CC(=O)N2CCCC(C(=O)c3cccc(OC(C)C)c3)C2)n1 (stereo not given),1%,-22%[46.1 µM],-19%,23%,20%,x,-7%,x
CCCc1c(-c2ccc(O)cc2)nn(-c2ccc(O)cc2)c1-c1ccc(O)cc1,2%,u,0%&-22%,0.29µM*,14%,u,-40%&-9%,-6.8%&-2.4%
O=C(c1ccc(N2CCN(C3CC(=O)N(c4ccc(F)cc4)C3=O)CC2)cc1)c1cccnc1 (stereo not given),0%[6.58 µM],0%,x,x,x,6%,-3%,-4.8%
COc1ccc(N2CC(C(=O)N[C@@H](C)C(=O)NC3CCCCC3)CC2=O)cc1 (stereo not given in full),12%,0%[46.1 µM],-3%,-12%[46.1 µM],-11%,x,-3%,x
CN(C)CC1CCCCC1OC(=O)c1ccc(S(=O)(=O)N(C)c2ccccc2)cc1 (stereo not given),0%,-4%[46.1 µM],-13%,0%[46.1 µM],-25%,x,7%,x
O=C(COc1ncnc2ccc(Br)cc12)N1CCOCC1,3%,-2%,1%,u,24%,-2%,-5%,2.8%
CC(C)OCCCNC(=O)C(C)Oc1ccccc1 (stereo not given),-3%,4%,1%,-3%,-8%,-4%,-6%,-2.0%
Cc1ccc(-n2c(N)c(C#N)c(-c3ccccc3)c(C#N)c2=O)cc1,2%,12%,-13%,12%,-4%,-20%,4%,-0.3%
COc1ccccc1NC(=O)CSc1nc2ccccc2n1C(C)=O,-17%,-24%,-19%,14%,-12%,2%,2%,-3.3%
CN1CCN(C(=O)c2ccc(CSc3ccc(Cl)cc3)cc2)CC1,5%,u,u,8%,8%,-4%,26%,-2.2%
O=C(c1ccc2nc(Cc3cccc(Cl)c3)oc2c1)N1CCC(CO)CC1,4%,x,10%,x,-1%,x,16%,x
Cc1cccc(CNC(=O)c2cnc3c(-c4cccc(C)c4)c(C)nn3c2C)c1,x,x,-7%,-15%[46.1 µM],x,-1%,x,-1.0%
CCOc1ccc(N2CC(C(=O)NCCN3C(=O)S/C(=C\c4cccnc4)C3=O)CC2=O)cc1 (stereo not given),1%,-5%[46.1 µM],26%,7%[46.1 µM],-5%,x,x,x
CN(c1ccccc1)S(=O)(=O)c1ccc2[nH]c(=O)[nH]c2c1,7%,x,-21%,x,1%,x,7%,x
Cn1c(-c2cccc3ccccc23)n[nH]c1=S,17%,0%,-12%,19%,-13%,14%,u,-1.5%

# Next section.
SMILES,SARS PLpro yeast,Marburg entry inh,StopGo reporter,LASV entry inh,RE007 growth inh,Cruzain noTriton,NS1 inh,Cruzain Triton
Cc1cccc(N2CCN(C(=O)CN3C(=O)COc4ccc(S(=O)(=O)N5CCCC5)cc43)CC2C)c1 (stereo not given),x,-5%[46.1 µM],-11%,-22%[46.1 µM],x,u,x,-3.8%
O=C(CCCCCBr)N1CCC(CC2CC(c3ccc(Cl)cc3)=NO2)(C(=O)NCC2CCCCC2)CC1 (stereo not given),-2%,x,14%,x,1%,x,11%,x
CCOC(=O)Cc1cc(OC)c(OC)cc1Cc1cc(OC)c(OC)cc1CC(=O)OCC,-10%,-3%,x,3%,9%,u,-3%,5.4%
CC(C)(C)N(Cc1ccccc1)C(=O)COC(=O)CCN1C(=O)C2CC=CCC2C1=O (stereo not given),2%,2%,u,-2%,-5%,x,x,x
CC(C)NC(=S)N1CCn2c(nc3ccccc32)C1,11%,u,5%,26%,-9%,0%,1%,-2.6%
CCSc1nnc(NC(=O)c2cc(-c3ccc(C)c(C)c3O)n[nH]2)s1,7%,x,5%,x,10%,4µM*,-4%,-1.6%
CC(C)C(=O)Nc1ccc(N2CCN(S(C)(=O)=O)CC2)cc1,-5%,9%[46.1 µM],-6%,9%,6%,6%,-2%,0.9%
O=C(OCCCN=C1NS(=O)(=O)c2ccccc21)c1cccs1,0%,13%[46.1 µM],-21%,0%[46.1 µM],1%,x,-49%,x
Cc1nnc(SC2CC(=O)N(c3ccccc3)C2=O)s1 (stereo not given),-94%,8%[46.1 µM],-10%,0%,40µM*,2%,-4%,0.6%
Cc1cc(NC(=O)CN2CCN(S(=O)(=O)c3ccc(Cl)cc3)CC2)no1,3%,19%,-1%,1%,4%,4%,-13%,-0.6%
CCC(C)NC(=O)c1ccc(CSc2nc3ccncc3n2Cc2ccc(F)cc2)cc1 (stereo not given),-2%,-16%,-18%,1%,1%,10%,u,-0.5%
Cc1cc(NS(=O)(=O)c2ccc(C(C)C)cc2)no1,-5%,-19%[46.1 µM],18%,u,-23%,x,-47%,x
Cc1ccc(NC(=O)C(C)N2C(=O)c3ccccc3C2=O)cc1S(=O)(=O)N1CCOCC1 (stereo not given),2%,x,14%,x,-2%,x,-13%,x
COc1ccc(C(=O)NCC(=O)NCC(=O)OCc2ccc(Cl)cc2)cc1,-1%,x,-2%,x,-4%,x,0%,x
